Screens deposited in PubChem BioAssay by several laboratories.
T cruzi repl – T. cruzi replication inhibition; T. cruzi beta-gal in NIH3T3, luminescence, 90 h; inhibition, % (concentration not given with the values); 1.4% of 300,000 active; AID 1885;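 active = mean inhibition across valid replicates above about 55%, limit read from the data; inconclusive = mean below that limit but half or more replicates reach it; inactive = mean below it, under half of replicates reach it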;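 also: signal also drops with host cell toxicity which is not excluded here; 0% = plate median of DMSO wells and 100% = zero luminescence signal; higher percent means less beta-gal luminescence so fewer parasites; stock transfer was 50 nL into about 50 µL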
Bfl-1 A1 inh – inhibitors of the anti-apoptotic protein A1, read as caspase activation. MEF A1-2A-BIM cells, Caspase-Glo 3/7 luminescence, 3 h; percent of clofoctol response, vehicle zero. caspase activation, % (concentration not given with the values). 0.066% of 330,000 active. AID 2462;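 active = over half of replicate activation scores above 10%, or exactly half above 10 with the replicate mean above 10; inconclusive = replicate mean below 10 yet half the replicates above 10; inactive = over half of replicates below 10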;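 also: wells of about 30 µL received 50 nL stock; many hits fall short of the cut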
Calb FLC – affects C. albicans growth with fluconazole; C. albicans CaCi-2 (fluconazole-resistant clinical isolate) + fluconazole, Alamar Blue growth, 48 h; growth inhibition, % (concentration not given with the values); 0.57% of 300,000 active;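 active = most replicates above 75%; inconclusive = exactly half above 75%; inactive = most below 75%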;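 also: all wells also contain fluconazole at 8 µg/ml as a sub-toxic cotreatment; 0% = median of DMSO wells and 100% = median of geldanamycin control wells; wells of about 8 µL received 7.5 nL stock; the first replicate is given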
LANA-H2A inh – blocks KSHV LANA binding to histone H2A/H2B; cell-free LANA-H2A/H2B peptide, fluorescence polarization; inhibition, % (no concentration beside the values); 0.6% of 320,000 active; AID 2629; in the data active = inhibition mostly above about 10%, no sharp cut-off; inactive = mostly below about 6.7%;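 also: stock transfer was 7.5 nL into about 10 µL; 0% = median of vehicle wells and 100% = median of positive control wells; one replicate is shown; the record names a cut of 25% in any replicate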
Target sequence (Q9QR71 whole entry, looked up): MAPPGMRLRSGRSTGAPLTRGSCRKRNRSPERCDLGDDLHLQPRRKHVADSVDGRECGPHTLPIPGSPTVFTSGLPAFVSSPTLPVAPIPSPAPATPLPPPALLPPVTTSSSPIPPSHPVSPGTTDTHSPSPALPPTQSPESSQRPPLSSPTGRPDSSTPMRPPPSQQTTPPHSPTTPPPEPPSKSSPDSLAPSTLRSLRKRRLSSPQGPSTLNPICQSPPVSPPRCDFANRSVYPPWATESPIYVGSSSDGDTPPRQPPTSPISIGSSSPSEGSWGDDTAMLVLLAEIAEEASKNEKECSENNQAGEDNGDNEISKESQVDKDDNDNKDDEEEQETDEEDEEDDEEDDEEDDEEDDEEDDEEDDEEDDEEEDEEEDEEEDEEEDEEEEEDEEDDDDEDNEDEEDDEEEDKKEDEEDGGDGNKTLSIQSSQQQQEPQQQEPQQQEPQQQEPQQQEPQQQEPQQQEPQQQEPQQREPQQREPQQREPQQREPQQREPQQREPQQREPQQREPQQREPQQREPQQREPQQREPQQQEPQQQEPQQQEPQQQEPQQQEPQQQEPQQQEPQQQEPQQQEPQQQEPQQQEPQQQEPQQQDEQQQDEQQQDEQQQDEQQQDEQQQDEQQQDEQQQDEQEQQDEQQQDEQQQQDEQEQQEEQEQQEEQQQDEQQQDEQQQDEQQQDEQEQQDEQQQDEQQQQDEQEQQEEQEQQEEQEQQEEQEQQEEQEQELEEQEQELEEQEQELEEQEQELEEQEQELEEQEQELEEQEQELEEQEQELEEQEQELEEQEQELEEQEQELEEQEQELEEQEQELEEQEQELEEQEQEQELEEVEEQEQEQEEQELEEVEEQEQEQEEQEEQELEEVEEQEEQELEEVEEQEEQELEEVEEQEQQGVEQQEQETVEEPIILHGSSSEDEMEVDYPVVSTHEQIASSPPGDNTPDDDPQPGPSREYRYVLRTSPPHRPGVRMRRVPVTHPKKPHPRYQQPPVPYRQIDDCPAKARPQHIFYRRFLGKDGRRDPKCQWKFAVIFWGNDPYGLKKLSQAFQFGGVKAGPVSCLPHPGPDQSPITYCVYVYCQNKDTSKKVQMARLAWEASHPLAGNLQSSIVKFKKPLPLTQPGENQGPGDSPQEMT
Beta cell apopt – blocks beta cell apoptosis; INS-1E cytokine-induced death, ATP luminescence, 48 h; percent of positive-control rescue, neutral wells zero; protection from apoptosis, % (concentration not given with the values); 0.8% of 300,000 active; AID 435005;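 active = all replicates at 75% or more, or half of them and the mean; inconclusive = half reach 75% but not the mean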;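 also: 0% = cytokine-treated negative control wells and 100% = positive control rescue; higher means more ATP so stronger rescue from cytokine killing; wells of about 40 µL received 100 nL stock; the first replicate is given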
AF4-AF9 inh – blocks AF4 peptide binding to human AF9 | P42568 | AlphaScreen, biotin-AF4 peptide binding to FLAG-AF9 | inhibition, % at 10 µM | 0.47% of 350,000 active;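 active = every replicate reaching a set inhibition limit, whatever the replicate mean, cut at about 25% in these data; inconclusive = mean inhibition reaches that limit but some replicates miss it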;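 also: 0% = plate neutral control median and 100% = total signal loss; the record names both 10 and 1 µM as test concentration; the first replicate is given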
Vif TR-FRET – inhibitors of Vif binding to APOBEC3G peptide, primary screen, biochemical, TR-FRET, GST-Vif 1-94, biotin-A3G peptide, dose response retest (AID 1117319); inhibition, %; hits with a dose series show IC50 in µM; TR-FRET GST-Vif / biotin-A3G peptide binding; higher % means a stronger effect; test concentration not given here; strong numbers were not always called active; 0.57% of 260,000 active;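 active = above the screen mean plus three standard deviations and confirmed in dose response; inconclusive = results disagree or hit not tested in dose response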;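 also: Vif residues 1-94 fused to GST binding biotinylated APOBEC3G peptide 110-148; 0% = full assay without inhibitor and 100% = GST in place of GST-Vif; retest series ran down from 100 µM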
RanGTP-Impb inh – inhibitors of RanGTP-importin-beta interaction, primary screen, biochemical, FRET, CFP-Ran, YFP-importin-beta, homogeneous; 1.1% of 300,000 active; AID 2216; inhibition, % (concentration not given with the values); cell-free CFP-Ran/YFP-importin-beta FRET ratio;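 active = most replicates above 15%; inconclusive = exactly half above 15%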;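 also: 0% = DMSO wells and 100% = Ran loaded with GDP instead of GTP; wells of about 40 µL received 100 nL stock; the first replicate is given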
An asterisk follows results filed as active; u = inconclusive; x = no result given.

molecule	T cruzi repl	Bfl-1 A1 inh	Calb FLC	LANA-H2A inh	Beta cell apopt	AF4-AF9 inh	Vif TR-FRET	RanGTP-Impb inh
COc1cccc(N2CCN(C3CC(=O)N(c4ccc(Cl)c(Cl)c4)C3=O)CC2)c1 (stereo not given)	-11	-0.5	4	-1.0	-3	x	10%	4.5
CCOC(=O)C1C(O)=CC(=O)CC1c1ccccc1 (stereo not given)	-27	0.8	-1	-1.7	2	0.4	x	4.2
Cc1ccc(-n2nc3c4c(cccc4c2=O)-c2ccccc2-3)cc1	18	0.1	4	0.3	4	x	1%	5.7
CCCN=C1N/C(=C\c2ccco2)C(=O)N1c1ccccc1	-21	-0.4	9	8.7	-1	x	u	-3.5
CCOC(=O)N1CCN(c2nnnn2-c2ccccc2)CC1	-7	0.6	-3	-3.2	1	x	0%	-1.8
N#Cc1cnn(Cc2ccc(Cl)cc2)c1N	-4	0.3	-14	5.3	1	x	6%	2.3
CC(C)C(=O)N(c1ccc2oc(=O)sc2c1)S(=O)(=O)c1cccs1	-4	-0.7	-7	-1.8	-11	x	6%	-0.1
CN(C(=O)c1ccc(NC(=O)Cc2ccc(NC(=O)C3CCCN(C(=O)c4ccccc4)C3)cc2)cc1)C1CC1 (stereo not given)	x	-2.4	x	3.4	12	-6.9	x	x
COc1ccc(S(=O)(=O)Cc2ccc(C(=O)N3CC(C)CC(C)C3)o2)cc1 (stereo not given)	-2	x	13	x	x	-2.0	5%	-2.6
Fc1cccc(Cl)c1CSc1nnc(COc2cccc3cccnc23)o1	7	0.1	-12	-0.3	4	-42	3%	-1.0
O=C(Nc1nc2ccc3ccccc3c2s1)c1ccc(N2CCCCC2)c([N+](=O)[O-])c1	26	-0.4	-15	1.5	2	2.3	x	-1.0
C/C(=N\NC(=O)c1ccccc1)c1ccc(NC(=O)c2cccs2)cc1	-17	-1.7	-19	x	-6	-3.9	x	6.6
CCOC(=O)C1=C(COC(=O)/C=C/c2ccc(C)o2)NC(=O)NC1C (stereo not given)	x	-0.8	x	4.9	-1	-3.7	-5%	x
COCCNC(=O)C(=O)NNS(=O)(=O)c1ccc(Cl)cc1	-4	0.2	-15	4.8	-2	1.2	10%	-5.2
C/C(=N\NC(=O)c1cccc(S(=O)(=O)N2CCCC2)c1)c1ccc(C)cc1	3	0.0	-3	0.0	-9	-0.2	5%	4.2
O=C(Nc1ccccc1N1CCN(C(=O)c2ccc(Cl)cc2)CC1)c1cccnc1	8	-0.5	22	-0.9	1	x	4%	3.6
CC(Oc1ccccc1)C(=O)Nc1ccc(S(=O)(=O)N2CCCC2)cc1 (stereo not given)	7	-0.1	-2	-11	-2	-1.2	x	2.4
CN(C)S(=O)(=O)c1ccc2c(c1)c(=O)c(C(=O)N1CCOCC1)cn2C	-7	0.3	3	0.0	-7	-2.1	7%	-6.0
CC(=O)OCC(=O)NCc1ccc2c(c1)OCO2	-11	-0.5	-14	-2.8	-6	x	5%	-6.0
COc1ccccc1/C=C/C=c1\sc2nc(=O)c(Cc3ccccc3)nn2c1=O	-14	-0.5	10	1.2	-2	-3.5	26%	1.2
CCOC(=O)N1CCC(NC(=O)c2cnc3n(c2=O)CCS3)CC1	2	-0.7	1	0.8	-1	-2.7	-1%	-0.2
COc1ccc(-c2nnn(Cc3nc(N)nc(N4CCOCC4)n3)n2)cc1OC	x	1.7	x	-5.9	-3	x	-1%	x
COC(=O)c1ccccc1NC(=O)CSc1ncccn1	-1	0.4	1	-4.4	-6	2.7	7%	0.4
Cc1ccc(C(=O)O)cc1NC(=O)c1ccc(Cn2nc(C)c(Cl)c2C)o1	-5	-0.1	3	-0.6	1	-4.2	2%	9.1
CN(C)C(=O)COc1ccc(Br)cc1	2	-0.1	6	2.5	-5	x	9%	1.9
O=C(CSc1nc2ncc(Cl)cc2[nH]1)N1CCOCC1	x	-1.4	x	-3.0	-5	-2.5	-9%	x
CCC(=O)c1ccc(OCc2ccc(C(=O)OC)o2)c(OC)c1	x	0.1	-4	-1.1	5	x	32%	1.1
O=C(Nc1ccc(NC(=O)c2sc3ccccc3c2Cl)cc1Cl)c1ccco1	3	0.0	8	3.3	1	x	3%	0.2
CCOc1ccc(C2=Nn3cnnc3SC2)cc1	12	0.0	-2	4.4	-1	x	1%	0.8
COCCN(CCOC)S(=O)(=O)c1ccc(C(=O)Nc2ccc([N+](=O)[O-])cc2OC)cc1	-2	0.4	0	-2.8	4	0.0	-5%	-4.9
C=CCc1ccc(OCC(O)COCC)c(OC)c1 (stereo not given)	-1	0.3	x	-0.2	-5	x	3%	6.6
CCn1c(SCC(=O)N(C)C2CCS(=O)(=O)C2)nnc1-c1cccs1 (stereo not given)	-6	1.1	-5	1.5	-5	-13	9%	u
CCN1CCN(C(=S)Nc2ccccc2Cl)CC1	-1	1.5	4	-7.7	3	x	6%	1.5
COc1ccc(C(CNC(=O)c2cccc(S(=O)(=O)N3CCCCC3)c2)N2CCCC2)cc1 (stereo not given)	x	0.2	x	-0.8	-8	5.4	-11%	x
CSc1ccccc1C(=O)Nc1ncc(C)s1	-14	-2.0	-1	-4.1	-10	x	4%	u
CCOC(=O)c1sc(NC(=O)c2ccccc2OCC)nc1C	2	-0.9	6	13	0	-2.6	7%	0.4
Cn1c(NCCCO)nc2c(c1=O)C1(CCCCC1)Cc1ccccc1-2	x	-0.3	x	-1.8	-17	x	-4%	x
O=C(CN(C(=O)CNC(=O)c1ccco1)c1ccc(Cl)c(Cl)c1)NC1CCCCC1	6	0.4	-4	5.5	0	x	-2%	u
Cn1nccc1C(=O)NC(=S)Nc1sc2c(c1C#N)CCCCC2	-7	-1.0	5	-4.7	-8	x	-1%	-1.8
CC1CC(=S)Nc2ccccc2N1C(=O)Nc1ccccc1 (stereo not given)	-8	-0.4	-7	0.0	-3	-0.7	-11%	u
O=[N+]([O-])c1cccnc1N1CCOCC1	-11	1.0	14	-2.1	-3	x	u	-2.2
CN(C(=O)CSc1ncnc2sccc12)C1CCCCC1	x	-0.2	x	3.3	-6	1.2	86%	x
CCN1CCN(CC(=O)NC2CCCC2)C(=O)C1=O	-16	0.4	6	-0.2	3	-2.2	0%	0.7
C/[N+]([O-])=C\CC(=O)c1ccc(-c2ccccc2)cc1	7	-1.1	-7	1.7	x	-0.6	x	-3.7
CCC(C)(C(=O)NC1CCCCC1)N(Cc1cccs1)C(=O)CC1NC(=O)NC1=O (stereo not given)	-1	1.0	-4	0.1	-8	x	4%	1.5

Exported with values under each structure: part of the list above
Sequence of screens – T cruzi repl	Bfl-1 A1 inh	Calb FLC	LANA-H2A inh	Beta cell apopt	AF4-AF9 inh	Vif TR-FRET	RanGTP-Impb inh
> Fc1cccc(Cl)c1CSc1nnc(COc2cccc3cccnc23)o1
    7	0.1	-12	-0.3	4	-42	3%	-1.0
> O=C(Nc1nc2ccc3ccccc3c2s1)c1ccc(N2CCCCC2)c([N+](=O)[O-])c1
    26	-0.4	-15	1.5	2	2.3	x	-1.0
> C/C(=N\NC(=O)c1ccccc1)c1ccc(NC(=O)c2cccs2)cc1
    -17	-1.7	-19	x	-6	-3.9	x	6.6
> CCOC(=O)C1=C(COC(=O)/C=C/c2ccc(C)o2)NC(=O)NC1C (stereo not given)
    x	-0.8	x	4.9	-1	-3.7	-5%	x
> COCCNC(=O)C(=O)NNS(=O)(=O)c1ccc(Cl)cc1
    -4	0.2	-15	4.8	-2	1.2	10%	-5.2
> C/C(=N\NC(=O)c1cccc(S(=O)(=O)N2CCCC2)c1)c1ccc(C)cc1
    3	0.0	-3	0.0	-9	-0.2	5%	4.2
> O=C(Nc1ccccc1N1CCN(C(=O)c2ccc(Cl)cc2)CC1)c1cccnc1
    8	-0.5	22	-0.9	1	x	4%	3.6
> CC(Oc1ccccc1)C(=O)Nc1ccc(S(=O)(=O)N2CCCC2)cc1 (stereo not given)
    7	-0.1	-2	-11	-2	-1.2	x	2.4
> CN(C)S(=O)(=O)c1ccc2c(c1)c(=O)c(C(=O)N1CCOCC1)cn2C
    -7	0.3	3	0.0	-7	-2.1	7%	-6.0
> CC(=O)OCC(=O)NCc1ccc2c(c1)OCO2
    -11	-0.5	-14	-2.8	-6	x	5%	-6.0
> COc1ccccc1/C=C/C=c1\sc2nc(=O)c(Cc3ccccc3)nn2c1=O
    -14	-0.5	10	1.2	-2	-3.5	26%	1.2
> CCOC(=O)N1CCC(NC(=O)c2cnc3n(c2=O)CCS3)CC1
    2	-0.7	1	0.8	-1	-2.7	-1%	-0.2
> COc1ccc(-c2nnn(Cc3nc(N)nc(N4CCOCC4)n3)n2)cc1OC
    x	1.7	x	-5.9	-3	x	-1%	x
> COC(=O)c1ccccc1NC(=O)CSc1ncccn1
    -1	0.4	1	-4.4	-6	2.7	7%	0.4
> Cc1ccc(C(=O)O)cc1NC(=O)c1ccc(Cn2nc(C)c(Cl)c2C)o1
    -5	-0.1	3	-0.6	1	-4.2	2%	9.1
> CN(C)C(=O)COc1ccc(Br)cc1
    2	-0.1	6	2.5	-5	x	9%	1.9
> O=C(CSc1nc2ncc(Cl)cc2[nH]1)N1CCOCC1
    x	-1.4	x	-3.0	-5	-2.5	-9%	x
> CCC(=O)c1ccc(OCc2ccc(C(=O)OC)o2)c(OC)c1
    x	0.1	-4	-1.1	5	x	32%	1.1

(more compounds)
molecule	T cruzi repl	Bfl-1 A1 inh	Calb FLC	LANA-H2A inh	Beta cell apopt	AF4-AF9 inh	Vif TR-FRET	RanGTP-Impb inh
CCOC(=O)c1cccc(NC(=O)c2cc3sccc3n2C)c1	23	-1.8	4	-2.9	4	x	2%	7.0
O=C(NCC1CCCO1)c1onc(CSc2ccc(F)cc2)c1C(=O)O (stereo not given)	-9	0.4	2	1.1	0	-5.8	2%	4.1
CCOc1ccc(NC(=O)Nc2ccc3nsnc3c2)cc1	-4	-2.0	-4	-8.6	4	-0.1	3%	-3.0
CCSc1nnc([C@H](Cc2c[nH]c3ccccc23)NC(=O)OC(C)(C)C)o1	6	-0.1	29	-2.1	-10	x	7%	1.8
Cc1cc(Cl)nc2c(C(C)C)cccc12	-8	0.1	-4	2.0	-2	-0.3	x	-1.6
CCOC(=O)N1CCN(C(=O)COC(=O)c2ccc(S(=O)(=O)N(CC)CC)cc2)CC1	-15	1.2	x	2.4	-3	-0.3	-4%	1.7
Cn1c(SCc2c(Cl)cccc2Cl)nc(C(F)(F)F)cc1=O	-15	0.1	6	-0.6	-2	x	2%	2.7
CCCCOC(=O)CCc1nc2ccccc2[nH]c1=O	-16	-0.3	7	-1.7	-7	x	1%	-12
